PINK1 expr mod – PINK1 expression modulation; PINK1 immunofluorescence, high-content cytometry, 24 h; 0.2% of 410,000 active; Potency, µM (top dose mostly 76.6 µM), for inactives: top-dose activation (PINK1 increase), most hits filed as activators; active = well fitted activation curve with a large enough effect; inconclusive = small, poorly fitted or top-dose-only effect; inactive = flat fitted curve, though single readings scatter; cell line not stated here;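 also: potency is read from the fitted curve at half-maximal effect; % of control where 0% means no effect; nearly all actives have a fitted effect of over 65% in size; a mitochondrial uncoupler was the plate control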
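Readout is PINK1 immunofluorescence, quantified alongside mitochondrial, cell and nuclear markers by laser-scanning microplate cytometry. Cells from a stable line were exposed to compound titrations (5 concentrations) for 24 hours, with CCCP controls.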
TRPML1 agonist – activates the human TRPML1 channel; Q9GZU1; TRPML1-expressing cells, Ca2+ dye fluorescence, FDSS; host cell line not named in the record; reference of the full effect not given here; activation, % (concentration not given with the values); 0.12% of 410,000 active; AID 624414; in the data active = activation above about 50%; inconclusive = about 30% to 50%; inactive = below about 30%; also: 0% is about no effect; the text of the record puts the active cut at 80%
Target sequence (Q9GZU1 whole entry, looked up): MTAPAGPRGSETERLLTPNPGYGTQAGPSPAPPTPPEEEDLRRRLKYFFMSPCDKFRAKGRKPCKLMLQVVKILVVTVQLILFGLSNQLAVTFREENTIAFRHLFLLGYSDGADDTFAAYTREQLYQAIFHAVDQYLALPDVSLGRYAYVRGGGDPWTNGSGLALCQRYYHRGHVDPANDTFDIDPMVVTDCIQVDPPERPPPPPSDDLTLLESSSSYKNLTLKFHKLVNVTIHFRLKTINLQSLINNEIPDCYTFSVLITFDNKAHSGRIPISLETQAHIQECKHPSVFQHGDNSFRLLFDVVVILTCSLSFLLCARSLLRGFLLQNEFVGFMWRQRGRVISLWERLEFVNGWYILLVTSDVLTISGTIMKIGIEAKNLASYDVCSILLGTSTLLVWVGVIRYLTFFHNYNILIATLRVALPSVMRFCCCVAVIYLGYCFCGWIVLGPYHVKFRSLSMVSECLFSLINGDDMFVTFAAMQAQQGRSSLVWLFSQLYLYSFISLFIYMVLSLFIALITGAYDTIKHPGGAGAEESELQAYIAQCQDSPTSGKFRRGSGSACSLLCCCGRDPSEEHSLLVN
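In this qHTS format, compounds were pin-transferred onto Ca8-dye-loaded TRPML1-DL cells induced with Tet overnight, and intracellular Ca2+ fluorescence was recorded kinetically for 110 s after a 10 s baseline. A subsequent 4uM final 54-4 (EC80) addition followed by a second 110 s read served as the antagonist phase.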
D2 agonist – human D2 receptor agonism in beta-arrestin assay; P14416; DiscoveRx PathHunter D2 beta-arrestin, luminescence, 90 min; 100% = 57 uM dopamine signal; activation, % (test concentration not listed); 0.084% of 360,000 active; in the data active = activation above about 40%; inconclusive = about 15% to 40%; inactive = below about 15%; also: compound concentration not given in the record; the text of the record calls up to 30% inactive
Target sequence (P14416 whole entry, looked up): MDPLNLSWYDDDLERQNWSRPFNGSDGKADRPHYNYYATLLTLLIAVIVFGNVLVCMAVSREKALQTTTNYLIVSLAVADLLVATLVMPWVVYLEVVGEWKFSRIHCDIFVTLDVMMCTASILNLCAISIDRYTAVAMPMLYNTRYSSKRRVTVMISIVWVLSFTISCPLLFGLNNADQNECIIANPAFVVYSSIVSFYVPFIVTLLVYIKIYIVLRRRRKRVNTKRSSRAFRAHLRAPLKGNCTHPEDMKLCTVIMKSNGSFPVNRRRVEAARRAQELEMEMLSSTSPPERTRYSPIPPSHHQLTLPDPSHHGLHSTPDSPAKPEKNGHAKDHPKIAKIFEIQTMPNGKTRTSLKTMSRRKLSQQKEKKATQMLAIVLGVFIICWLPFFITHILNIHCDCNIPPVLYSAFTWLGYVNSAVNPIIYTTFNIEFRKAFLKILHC
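Agonist mode: compounds alone added to overnight-plated D2 PathHunter cells for 90 min at 37 C, with 57 uM final dopamine (EC100) defining full response. Beta-arrestin recruitment detected by chemiluminescent reagent, read after 1 h at ambient temperature.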
Six1-Eya2 inh – blocks human Six1 binding to Eya2; Q15475+O00167; AlphaScreen GST-Six1/His-Eya2 binding, biochemical; hits give low values; control for the full effect not named in the record; activity change, % (concentration not given with the values); 0.56% of 360,000 active; AID 651725; in the data active = activity change below about -65%; inconclusive = about -30% to -65%; inactive = above about -30%; also: % is scaled to controls: 0 for no effect and ±100 for the full control effect
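Six1/Eya2 binding was read as AlphaScreen signal after compounds were pinned into GST-Six1 plus His-tagged Eya2 (5X stock 250/500 nM) in pH 8.0 Tris/NaCl/TCEP buffer, beads added, then incubated 1 h, 37 C, dark.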
D2 PAM – human D2 receptor positive allosteric modulation | P14416 | DiscoveRx D2 beta-arrestin cells, luminescence, 90 min; 100% = 57 uM dopamine signal | potentiation, % (test concentration not listed) | 0.23% of 360,000 active; active = potentiation of 50% or more; inconclusive = 30% to 50%; inactive = 30% or less;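 also: compound concentration not given in the record; tested on top of an EC20 dose of dopamine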
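D2 cells co-treated with compound plus 50 nM dopamine (EC20) for 90 min at 37 deg C to detect potentiation. Beta-arrestin recruitment was read as enzyme-fragment luminescence after 1 h at ambient temperature. Full response was set by 57 uM dopamine.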
CtBP-E1A blk – CtBP/E1A binding inhibition | AlphaScreen GST-E1A/His-CtBP binding, 1536-well; hits give low values; control for the full effect not named in the record | 0.49% of 340,000 active | activity change, % (no concentration beside the values); in the data active means activity change below about -65%; inconclusive means about -30% to -65%; inactive means above about -30%; also: % is scaled to controls: 0 for no effect and ±100 for the full control effect; compound concentration not given in the record
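AlphaScreen with 125 nM GST-E1A and 125 nM His-CtBP (5X stocks) in Tris pH 8.0, 300 mM NaCl, BSA, Tween 20, TCEP. Compounds preincubated 2 h at 37 deg C, then glutathione donor/nickel acceptor beads added for 1 h at 37 deg C in dark.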
The depositor's hits bear a star; [ ] = remark or other dose.

How did CC1=CC(C)(C)N2C(=O)C3(N=C(N)NC(Nc4ccccc4)=N3)c3cc(C)cc1c32 (stereo not drawn) do in these assays?
PINK1 expr mod: 1.9%; TRPML1 agonist: -0.7; D2 agonist: -3.7; Six1-Eya2 inh: -15; D2 PAM: -9; CtBP-E1A blk: -20

How did NS(=O)(=O)c1ccc(NC(=O)N2c3ccccc3Sc3ccccc32)cc1 do in these assays?
TRPML1 agonist: 0.9; D2 agonist: 6.5; Six1-Eya2 inh: -4; D2 PAM: 21; CtBP-E1A blk: 12

Results for O=C(CC1CCCCC1)NCCS(=O)(=O)N1CCN(c2ccccc2)CC1 ?
PINK1 expr mod: 0.5%; TRPML1 agonist: 1.0; D2 agonist: -4.3; Six1-Eya2 inh: 3; D2 PAM: 0; CtBP-E1A blk: -4

What do the screens show for `COc1ccc(CN(CC(=O)NCC2CCCO2)C(=O)CCC(=O)Nc2nccs2)cc1` (stereo not drawn)?
PINK1 expr mod: -1.4%; TRPML1 agonist: -0.5; D2 agonist: -3.1; Six1-Eya2 inh: 7; D2 PAM: -4; CtBP-E1A blk: 0

How did CC(C)(C)c1cc(CCC(=O)NCc2ccccn2)cc(C(C)(C)C)c1O do in these assays?
PINK1 expr mod: 1.1%; TRPML1 agonist: 2.1; D2 agonist: -4.1; Six1-Eya2 inh: 3; D2 PAM: -7; CtBP-E1A blk: -3

Results for COc1ccc2cc(C#N)c(SCC(=O)N3CC(=O)Nc4ccccc43)nc2c1 ?
PINK1 expr mod: inconclusive; TRPML1 agonist: 1.1; D2 agonist: -3.5; Six1-Eya2 inh: -2; D2 PAM: -8; CtBP-E1A blk: 1

How did O=C(O)CCC(=O)Nc1nc2ccccc2s1 do in these assays?
PINK1 expr mod: 1.5%; TRPML1 agonist: 0.5; D2 agonist: -3.7; Six1-Eya2 inh: -2; D2 PAM: 1; CtBP-E1A blk: 0

Results for COc1ccc(CCNC(=O)COc2cccc(-n3cnnn3)c2)cc1 ?
PINK1 expr mod: 1.4%; TRPML1 agonist: 0.7; D2 agonist: -4.0; Six1-Eya2 inh: 0; D2 PAM: -11; CtBP-E1A blk: -3

What do the screens show for `O=C(COC(=O)c1cc(C(F)(F)F)cc(C(F)(F)F)c1)NCc1ccc(Cl)cc1`?
PINK1 expr mod: 13%; TRPML1 agonist: 0.0; D2 agonist: 0.3; Six1-Eya2 inh: -1; D2 PAM: 0; CtBP-E1A blk: -17

What do the screens show for `Cn1c(N)c(C(=O)c2ccc(F)cc2F)c(=O)n(C)c1=O`?
PINK1 expr mod: 0.2%; TRPML1 agonist: 0.0; D2 agonist: -0.7; Six1-Eya2 inh: 6; D2 PAM: -6; CtBP-E1A blk: 13

What do the screens show for `O=C1CN(C(=O)N[C@@H](Cc2ccccc2)C(=O)N[C@@H](Cc2ccccc2)C(=O)O)c2ccccc2N1`?
PINK1 expr mod: 1.4%; TRPML1 agonist: 0.2; D2 agonist: -2.4; Six1-Eya2 inh: 1; D2 PAM: 0; CtBP-E1A blk: 6

What do the screens show for `O=C(Nc1ccc(NC(=S)NC(=O)c2cccs2)cc1)c1ccccc1`?
PINK1 expr mod: inconclusive; TRPML1 agonist: 1.1; D2 agonist: 0.2; Six1-Eya2 inh: -5; D2 PAM: -17; CtBP-E1A blk: -4

Results for O=C(/C=C/Nc1ccccc1OC(F)(F)F)C(F)(F)F ?
PINK1 expr mod: -0.8%; TRPML1 agonist: 0.8; D2 agonist: -5.4; Six1-Eya2 inh: -1; D2 PAM: -5; CtBP-E1A blk: -1

Results for O=C(c1cc2nc(C3CC3)cc(C(F)(F)F)n2n1)N1CCCC1 ?
PINK1 expr mod: 1.6%; TRPML1 agonist: -1.2; D2 agonist: -3.3; Six1-Eya2 inh: -3; D2 PAM: -9; CtBP-E1A blk: -6

What do the screens show for `COC(=O)Nc1ncc(CN2CCc3ccccc3C2)s1`?
TRPML1 agonist: 0.8; D2 agonist: -0.6; Six1-Eya2 inh: -3; D2 PAM: -36; CtBP-E1A blk: 11

What do the screens show for `COc1cc(OC)cc(C(=O)n2nc(C)cc2C)c1`?
PINK1 expr mod: 0.8%[38.3 µM]; TRPML1 agonist: -0.5; D2 agonist: -0.9; Six1-Eya2 inh: 4; D2 PAM: -8; CtBP-E1A blk: 12

Results for CN(C)CCNC(=S)Nc1ccc(-c2nc3ccccc3[nH]2)cc1 ?
PINK1 expr mod: 0.2%; TRPML1 agonist: -0.4; D2 agonist: 7.1; Six1-Eya2 inh: -13; D2 PAM: -13

Results for Cc1ccc(C)c(NC(=O)c2ccc3c(=O)n4c(nc3c2)CCC4)c1 ?
PINK1 expr mod: -0.3%; TRPML1 agonist: 0.1; D2 agonist: 2.0; Six1-Eya2 inh: -7; D2 PAM: 15

How did Cc1[nH][nH]c(=O)c1C(c1c(C)[nH][nH]c1=O)c1cn(Cc2ccc(Cl)c(Cl)c2)c2ccccc12 do in these assays?
PINK1 expr mod: inconclusive; TRPML1 agonist: 2.0; D2 agonist: -6.0; Six1-Eya2 inh: -9; D2 PAM: -11; CtBP-E1A blk: -11

How did CC(=O)Nc1ccc(S(=O)(=O)NNC(=O)c2cccc(Br)c2)cc1 do in these assays?
PINK1 expr mod: -1.6%; TRPML1 agonist: 1.3; D2 agonist: 5.9; Six1-Eya2 inh: 23; D2 PAM: 7; CtBP-E1A blk: 3

How did Cc1ccc2[nH]c(C(=O)Nc3ccc(F)cc3)cc2c1 do in these assays?
PINK1 expr mod: 2.2%; TRPML1 agonist: 1.3; D2 agonist: -4.0; Six1-Eya2 inh: 2; D2 PAM: -1; CtBP-E1A blk: 4

How did COCc1[nH]nc2c1C1(C(=O)N(C)c3ccccc31)C(C#N)=C(N)O2 (stereo not drawn) do in these assays?
PINK1 expr mod: -1.2%; TRPML1 agonist: -0.5; D2 agonist: 1.6; Six1-Eya2 inh: 0; D2 PAM: 9; CtBP-E1A blk: 1

What do the screens show for `Cc1nn(-c2ccccc2)c(NC(=O)c2cccs2)c(-c2ccc(Cl)cc2)c1=O`?
PINK1 expr mod: -2.2%; TRPML1 agonist: 0.8; D2 agonist: -0.6; Six1-Eya2 inh: 9; D2 PAM: -1; CtBP-E1A blk: 1

Results for COc1cccc(/C=N/n2c(-c3n[nH]c4c3CCC4)n[nH]c2=S)c1O ?
PINK1 expr mod: -3.4%; TRPML1 agonist: 0.7; D2 agonist: -1.2; Six1-Eya2 inh: inconclusive; D2 PAM: -2; CtBP-E1A blk: inconclusive

How did Cc1ccc(CNS(=O)(=O)c2cc3c4c(c2)CCN4C(=O)CC3)cc1 do in these assays?
PINK1 expr mod: -4.4%; TRPML1 agonist: 1.1; D2 agonist: 2.0; Six1-Eya2 inh: 0; D2 PAM: -18; CtBP-E1A blk: -2

What do the screens show for `COc1cccc(C(=O)NC(C)c2cccc3ccccc23)c1OC` (stereo not drawn)?
PINK1 expr mod: 1.4%; TRPML1 agonist: 1.8; D2 agonist: 0.1; Six1-Eya2 inh: 2; D2 PAM: -3; CtBP-E1A blk: 3

How did CC(=O)c1cccc(N(CC(=O)NC2CCCCC2)C(=O)Cn2nnc(-c3ccccc3)n2)c1 do in these assays?
PINK1 expr mod: 2.3%; TRPML1 agonist: -0.6; D2 agonist: -0.7; Six1-Eya2 inh: -2; D2 PAM: -4; CtBP-E1A blk: -3

What do the screens show for `O=C(N/N=C/c1ccccc1)c1sccc1OCc1ccc(F)cc1`?
PINK1 expr mod: 5.3%; TRPML1 agonist: 3.1; D2 agonist: -3.9; Six1-Eya2 inh: -1; D2 PAM: -2; CtBP-E1A blk: -2

Results for Cc1cc(C(=O)Nc2sc3c(c2C#N)CCC(C)C3)cs1 (stereo not drawn) ?
PINK1 expr mod: 14%[38.3 µM]; TRPML1 agonist: -0.7; D2 agonist: -0.6; Six1-Eya2 inh: 1; D2 PAM: -5; CtBP-E1A blk: 0

How did Clc1ccccc1CSc1nnc(/C=C/c2ccccc2)o1 do in these assays?
PINK1 expr mod: 8.6%; TRPML1 agonist: 2.1; D2 agonist: -3.3; Six1-Eya2 inh: 32; D2 PAM: 2; CtBP-E1A blk: 44

The last 3 entries of the part before open the next one.
What do the screens show for `O=C(N/N=C/c1ccccc1)c1sccc1OCc1ccc(F)cc1`?
PINK1 expr mod: 5.3%; TRPML1 agonist: 3.1; D2 agonist: -3.9; Six1-Eya2 inh: -1; D2 PAM: -2; CtBP-E1A blk: -2

Results for Cc1cc(C(=O)Nc2sc3c(c2C#N)CCC(C)C3)cs1 (stereo not drawn) ?
PINK1 expr mod: 14%[38.3 µM]; TRPML1 agonist: -0.7; D2 agonist: -0.6; Six1-Eya2 inh: 1; D2 PAM: -5; CtBP-E1A blk: 0

How did Clc1ccccc1CSc1nnc(/C=C/c2ccccc2)o1 do in these assays?
PINK1 expr mod: 8.6%; TRPML1 agonist: 2.1; D2 agonist: -3.3; Six1-Eya2 inh: 32; D2 PAM: 2; CtBP-E1A blk: 44

Results for Cc1ccc(C(=O)NCC(=O)OCC(=O)Nc2cc(S(=O)(=O)N3CCOCC3)ccc2C)cc1 ?
PINK1 expr mod: 1.2%; TRPML1 agonist: 0.0; D2 agonist: -4.9; Six1-Eya2 inh: 3; D2 PAM: -30; CtBP-E1A blk: 4

Results for COc1ccc(CN2CCC3CC2c2cc(-c4cccc(C)c4)ccc23)cc1 (stereo not drawn) ?
PINK1 expr mod: inconclusive; TRPML1 agonist: -0.7; D2 agonist: 0.4; Six1-Eya2 inh: -15; CtBP-E1A blk: -11

How did Cc1ccc(S(=O)(=O)N(C)C)cc1NC(=O)CN1C(=O)NC2(CCCCCC2)C1=O do in these assays?
PINK1 expr mod: 2.2%; TRPML1 agonist: -0.2; D2 agonist: -6.2; Six1-Eya2 inh: -1; D2 PAM: -26; CtBP-E1A blk: 8

Results for COC(=O)c1[nH]c2cc(OC)ccc2c1NC(=O)CN1CCN(c2cccc(C)c2)C(C)C1 (stereo not drawn) ?
PINK1 expr mod: 6.2%; TRPML1 agonist: -0.1; D2 agonist: -1.5; Six1-Eya2 inh: inconclusive; D2 PAM: -5; CtBP-E1A blk: -23

Results for O=c1ccc(-c2ccc(S(=O)(=O)Nc3cccc(Br)c3)o2)n[nH]1 ?
PINK1 expr mod: -0.4%; TRPML1 agonist: -0.4; D2 agonist: -0.2; Six1-Eya2 inh: -9; D2 PAM: 9; CtBP-E1A blk: -16

How did Cc1cc(NC(=O)CSc2cn(CCNC(=O)c3ccccc3)c3ccccc23)no1 do in these assays?
PINK1 expr mod: 3.2%; TRPML1 agonist: 0.1; D2 agonist: 2.8; Six1-Eya2 inh: inconclusive; D2 PAM: 3; CtBP-E1A blk: -2

How did COc1ccc(/C=N/n2c(-c3ccco3)nc3ccccc3c2=O)cc1 do in these assays?
PINK1 expr mod: 7.0%; TRPML1 agonist: -0.1; D2 agonist: -2.5; Six1-Eya2 inh: 2; D2 PAM: 3; CtBP-E1A blk: -3

How did C/C(=N\NC(=O)c1nc2ccccn2c1C)c1cc2ccccc2o1 do in these assays?
PINK1 expr mod: 14%; TRPML1 agonist: -1.8; D2 agonist: -8.2; Six1-Eya2 inh: -25; D2 PAM: -1; CtBP-E1A blk: inconclusive
